ID4 binder: ID4 (human) binding; calls only; small molecule microarray, Flag-ID4 binding, fluorescence F/B; P47928; 1.2% of 31,000 active;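 active = spot signal over background at p below 0.07 in all four prints; compounds were printed on slides so no solution concentration is given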;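 also: a binder raises fluorescence above local background on the spot; about 2 pmol printed per array spot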
Target sequence (P47928 whole entry, looked up): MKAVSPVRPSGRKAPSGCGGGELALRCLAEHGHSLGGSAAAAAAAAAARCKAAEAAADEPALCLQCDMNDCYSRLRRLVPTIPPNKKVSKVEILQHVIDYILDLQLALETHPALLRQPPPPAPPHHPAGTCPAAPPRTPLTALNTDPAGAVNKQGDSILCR
Calls only; i = inactive; + = active, no number. Not all compounds are listed; count on the stated rates, not on these rows.

SMILES | ID4 binder
Cc1ccccc1NC(=O)C(=O)NCc1cccnc1 | i
CCCN(C)C[C@@H]1Oc2cc(C#CC3CCCC3)ccc2S(=O)(=O)N([C@H](C)CO)C[C@@H]1C | i
C[C@H](CO)N1C[C@H](C)[C@@H](CN(C)S(C)(=O)=O)Oc2ncc(-c3ccc(F)cc3)cc2C1=O | i
Cc1cc(NC(=O)C(=O)NCCCn2ccnc2)ccc1Br | i
CC(=O)c1cccc(NC(=O)CN(c2cc(Cl)c(Cl)cc2Cl)S(C)(=O)=O)c1 | i
CC(C)(C)SCCNc1nc(Sc2ccc(Cl)cc2)nc(N2CCSCC2)n1 | i
C[C@H]1CN([C@@H](C)CO)C(=O)c2cc(C#CC(C)(C)O)cnc2O[C@H]1CN(C)Cc1cccc(F)c1 | i
O=C(Nc1sc2c(c1C(=O)NCc1cccnc1)CCCC2)c1ccco1 | i
O=C(CNC(=O)c1ccc([N+](=O)[O-])cc1)Nc1ccccc1C(F)(F)F | i
CCc1c(O)nc(SCC(=O)Nc2ccc(OC)cc2)n(-c2ccccc2C)c1=O | i
CC1(C)CC(=O)C2=C(C1)N(CCCN1CCOCC1)C(=O)C2(NC(=O)c1ccccc1)C(F)(F)F (stereo not drawn) | i
O=C(C[C@H]1CC[C@@H](NS(=O)(=O)c2ccccc2)[C@@H](CO)O1)NCc1ccncn1 | i
COC(=O)/C=C1\NC2CCCCC2NC1=O (stereo not drawn) | i
CCCCC(=O)O[C@H]1CCC2C3CCc4cc(O)ccc4C3CC[C@@]21C (stereo partly drawn) | i
C[C@@H]1CN([C@H](C)CO)S(=O)(=O)c2ccc(Br)cc2O[C@H]1CN(C)S(=O)(=O)c1ccccc1 | i
O=C(C[C@H]1C=C[C@@H](NS(=O)(=O)c2ccccc2)[C@@H](CO)O1)NCc1ccc(Cl)c(Cl)c1 | i
CCC(=O)N(C)C[C@H]1Oc2ncc(C#Cc3ccccc3)cc2C(=O)N([C@@H](C)CO)C[C@H]1C | i
CCS(=O)(=O)N[C@H]1C=C[C@@H](CC(=O)Nc2ccc(-c3ccccc3)cc2)O[C@@H]1CO | i
COc1cc(Cl)c(C)cc1NC(=O)CSc1nnnn1-c1ccccc1 | i
O=C(Nc1ccc2c(c1)OCCO2)C1CCCN(S(=O)(=O)c2ccc(F)cc2)C1 (stereo not drawn) | i

Part of the list above, as tab-separated lines:
SMILES	ID4 binder
Cc1ccccc1NC(=O)C(=O)NCc1cccnc1	i
CCCN(C)C[C@@H]1Oc2cc(C#CC3CCCC3)ccc2S(=O)(=O)N([C@H](C)CO)C[C@@H]1C	i
C[C@H](CO)N1C[C@H](C)[C@@H](CN(C)S(C)(=O)=O)Oc2ncc(-c3ccc(F)cc3)cc2C1=O	i
Cc1cc(NC(=O)C(=O)NCCCn2ccnc2)ccc1Br	i
CC(=O)c1cccc(NC(=O)CN(c2cc(Cl)c(Cl)cc2Cl)S(C)(=O)=O)c1	i
CC(C)(C)SCCNc1nc(Sc2ccc(Cl)cc2)nc(N2CCSCC2)n1	i
C[C@H]1CN([C@@H](C)CO)C(=O)c2cc(C#CC(C)(C)O)cnc2O[C@H]1CN(C)Cc1cccc(F)c1	i
O=C(Nc1sc2c(c1C(=O)NCc1cccnc1)CCCC2)c1ccco1	i
O=C(CNC(=O)c1ccc([N+](=O)[O-])cc1)Nc1ccccc1C(F)(F)F	i
CCc1c(O)nc(SCC(=O)Nc2ccc(OC)cc2)n(-c2ccccc2C)c1=O	i
CC1(C)CC(=O)C2=C(C1)N(CCCN1CCOCC1)C(=O)C2(NC(=O)c1ccccc1)C(F)(F)F (stereo not drawn)	i
O=C(C[C@H]1CC[C@@H](NS(=O)(=O)c2ccccc2)[C@@H](CO)O1)NCc1ccncn1	i
COC(=O)/C=C1\NC2CCCCC2NC1=O (stereo not drawn)	i
CCCCC(=O)O[C@H]1CCC2C3CCc4cc(O)ccc4C3CC[C@@]21C (stereo partly drawn)	i

Further records:
SMILES | ID4 binder
CN(C)C(=O)C[C@H]1C[C@H]2c3cc(NC(=O)Nc4ccccc4)ccc3O[C@H]2[C@H](CO)O1 | i
C[C@@H]1CN([C@H](C)CO)S(=O)(=O)c2ccc(C#CC3CCCC3)cc2O[C@H]1CN(C)C(=O)Nc1cc(F)ccc1F | i
CC(=O)OCCCNC(=O)c1cc2ccccc2oc1=O | i
CNC[C@@H]1Oc2cc(C#CC3CCCCC3)ccc2S(=O)(=O)N([C@@H](C)CO)C[C@H]1C | i
Cc1ccc(-n2nc3ccc(NC(=O)COc4ccccc4C)cc3n2)cc1 | i
O=S(=O)(c1ccccc1)c1nc(-c2ccccc2)oc1NCC1CCCO1 (stereo not drawn) | i
CN1CCN(CCCN2c3ccccc3Sc3ccc(C(F)(F)F)cc32)CC1 | i
COc1ccc([N+](=O)[O-])cc1NC(=O)CN(c1ccc(Cl)c(Cl)c1)S(C)(=O)=O | i
C[C@@H]1CN([C@@H](C)CO)S(=O)(=O)c2ccc(C#CCN(C)C)cc2O[C@@H]1CN(C)Cc1ccccc1 | i
C[C@H](CO)N1C[C@H](C)[C@@H](CN(C)C)Oc2ncc(-c3ccccc3)cc2C1=O | i
C[C@H](CO)N1C[C@H](C)[C@@H](CN(C)Cc2ccccn2)Oc2ncc(C#CCC3CCCC3)cc2C1=O | i
Cc1ccc(OCC(=O)Nc2cccc(-c3nnc(-c4ccccc4)o3)c2)cc1 | i
COc1ccc(-c2cnc3c(c2)C(=O)N([C@H](C)CO)C[C@@H](C)[C@@H](CN(C)Cc2ccccn2)O3)cc1 | i
C[C@@H]1CN([C@H](C)CO)C(=O)c2ccccc2-c2ccccc2CO[C@@H]1CN(C)Cc1ccc(Oc2ccccc2)cc1 | i
COc1cc(NC(=O)CSc2ncnc3sc4c(c23)CCCC4)cc(OC)c1 | i
O=C(CCN1C(=O)c2ccccc2C1=O)Nc1ccccc1C(=O)N1CCCC1 | i
C[C@@H]1CN([C@@H](C)CO)S(=O)(=O)c2ccc(C#Cc3ccccc3F)cc2O[C@H]1CN(C)C | i
O=C(CSc1nnnn1-c1cccc(C(=O)O)c1)Nc1ccccc1F | i
COc1ccc(Cl)cc1NC(=O)CSc1nnc(-c2cccc(C)c2)n1C | i
O=C(C[C@H]1CC[C@H](NC(=O)Nc2ccc(F)cc2)[C@@H](CO)O1)NCc1cccc(F)c1 | i
Cc1ccc(C(=O)CSc2nc(C)nc3sc(C)c(C)c23)cc1 | i
CCC(=O)N(C)C[C@@H]1Oc2ncc(C#CC(C)C)cc2C(=O)N([C@H](C)CO)C[C@@H]1C | i
C[C@@H]1CN([C@@H](C)CO)C(=O)c2cc(-c3cncnc3)cnc2O[C@@H]1CN(C)Cc1ccc(F)cc1 | i
C[C@H](CO)N1C[C@H](C)[C@@H](CN(C)C)Oc2ncc(/C=C/c3ccccc3)cc2C1=O | i
O=C(CN1CCN(S(=O)(=O)c2cccc([N+](=O)[O-])c2)CC1)Nc1ccc(F)cc1 | i
C[C@H](CO)N1C[C@H](C)[C@H](CN(C)C(=O)c2cccnc2)Oc2cc(C#CC3(O)CCCC3)ccc2S1(=O)=O | i
N#Cc1c(-c2ccccc2)nc(SCC(=O)Nc2cccc(C(F)(F)F)c2)[nH]c1=O | i
COc1ccccc1NC(=O)N[C@@H]1C=C[C@@H](CC(=O)N[C@@H](C)c2ccccc2)O[C@@H]1CO | i
COc1ccc(-c2nnc3c4ccccc4c(C)nn23)cc1S(=O)(=O)NC(C)c1ccccc1 (stereo not drawn) | i
Cc1c(C(=O)Sc2ccccc2)sc2nc(C(F)(F)F)nn12 | i
COc1ccc(OC)c(NC(=O)C2=C(C)NC(=O)NC2c2cccc(OC)c2OC)c1 (stereo not drawn) | i
COc1ccccc1-n1nnnc1SCC(=O)Nc1ccc(Br)cc1 | i
COc1ccc(-c2nn(C)c(=O)c3ccccc23)cc1CNS(=O)(=O)c1ccc(Cl)cc1 | i
Cc1noc(C)c1NC(=O)N[C@H]1C=C[C@@H](CC(=O)NCc2ccc(Cl)c(Cl)c2)O[C@@H]1CO | i
Cc1cc2nn(-c3cccc4ccccc34)nc2cc1NC(=O)COc1ccc([N+](=O)[O-])cc1 | i
C[C@@H]1CN([C@@H](C)CO)C(=O)c2cc(C#CC(C)(C)O)cnc2O[C@@H]1CN(C)C(=O)C1CCCCC1 | i
C[C@H](CO)N1C[C@H](C)[C@@H](CN(C)Cc2ccccc2)Oc2ncc(C#Cc3cccnc3)cc2C1=O | i
COC(=O)c1ccc(NC(=O)CSc2nnc(-c3cccc(N)c3)n2C)cc1 | i
CC(C)NC(=O)N(C)C[C@@H]1Oc2cc(C#Cc3cccc(F)c3)ccc2S(=O)(=O)N([C@H](C)CO)C[C@H]1C | i
CO[C@@H](CN(C)S(=O)(=O)c1ccc(C)cc1)[C@H](C)CN(Cc1ccccc1Cl)[C@@H](C)CO | i
CCCC#Cc1ccc2c(c1)O[C@H](CN(C)Cc1ccccc1)[C@@H](C)CN([C@H](C)CO)S2(=O)=O | i
COc1ccc(-c2cnc3c(c2)C(=O)N([C@@H](C)CO)C[C@@H](C)[C@@H](CN(C)Cc2ccccn2)O3)cc1 | i
O=C(C1CCCO1)N1CCN(C/C=C/c2ccccc2)CC1 (stereo not drawn) | i
C[C@H]1CN([C@@H](C)CO)C(=O)c2cc(C#Cc3ccncc3)cnc2O[C@@H]1CN(C)CC1CCCCC1 | i
CC(Oc1cccc(Br)c1)C(=O)NCc1ccco1 (stereo not drawn) | i
CCC1(C)Cc2c(sc3nnn(CC(=O)Nc4ccc(OC)cc4OC)c(=O)c23)CO1 (stereo not drawn) | i
O=C(C[C@@H]1CC[C@H](NC(=O)CC2CC2)[C@H](CO)O1)NCc1ccc(Cl)cc1 | i
C[C@H]1CN([C@@H](C)CO)S(=O)(=O)c2ccc(C3=CCCC3)cc2O[C@@H]1CN(C)C(=O)CC1CC1 | i
Cc1cc(OCC(=O)Nc2cccc3ncccc23)ccc1Cl | i
O=C(C[C@H]1C=C[C@@H](NC(=O)C2CC2)[C@H](CO)O1)NCc1ccccc1Cl | i
Cc1cccc(NC(=O)c2cc(NC(=O)C3CCCCC3C(=O)O)ccc2N2CCOCC2)c1 (stereo not drawn) | i
C[C@@H](NC(=O)C[C@H]1CC[C@@H](NC(=O)CN2CCOCC2)[C@H](CO)O1)c1ccccc1 | i
CC(=O)N1CCN(Cc2nc3cc(NC(=O)Cn4nc(C)c5ccccc5c4=O)ccc3n2C)CC1 | i
COc1ccc(S(=O)(=O)N[C@H]2C=C[C@H](CC(=O)NCCc3ccccc3)O[C@@H]2CO)cc1 | i
Cc1nn2c(-c3cccc(NC(=O)CSc4nc5ccccc5o4)c3)nnc2c2ccccc12 | i
O=C(NCC[C@@H]1CC[C@H](NC(=O)C2CCCC2)[C@H](CO)O1)c1ccc(F)cc1 | i
Cn1c(SCC(=O)Nc2ccc(Cl)c(Cl)c2)nnc1-c1ccc(Cl)c(Cl)c1 | i
O=C(NCCCn1ccnc1)c1cc(-c2ccccn2)nc2ccc(Br)cc12 | i
O=C(CCCN1C(=O)c2ccccc2C1=O)Nc1ccc2c(c1)OCCO2 | i
COc1ccc(S(=O)(=O)N(C)CC(=O)Nc2cc(C(F)(F)F)ccc2Cl)cc1 | i
Next section
SMILES | ID4 binder
CC(C)NC(=O)N[C@H]1C=C[C@H](CC(=O)NCCCN(C)C)O[C@@H]1CO | i
CC(C)(C)c1ccc(OCC(=O)NCc2ccco2)c(Br)c1 | i
CC(=O)N(C)C[C@H]1Oc2ncc(-c3ccccc3F)cc2C(=O)N([C@@H](C)CO)C[C@@H]1C | i
CCS(=O)(=O)N1[C@H](CO)[C@H](c2ccc(C#CCC3CCCC3)cc2)[C@@H]1C#N | i
COC(=O)c1ccc(OCC(O)Cn2c(C)nc3ccccc32)cc1 (stereo not drawn) | +
CCCN1C[C@@H](C)[C@H](OC)CN(C)C(=O)c2ccc(NC(=O)c3cccc(OC)c3)cc2OC[C@H]1C | i
C=CCN1C(=O)[C@@]2(O[C@@H](CCn3cc([C@H](O)c4ccccc4)nn3)[C@H]([Si](C)(C)c3ccc(OC)cc3)[C@H]2C)c2ccccc21 | i
CCOc1cccc(NC(=O)C2CC(=O)N(/N=C(\C)c3ccc(Br)s3)C(=N)S2)c1 (stereo not drawn) | i
CCc1ccccc1NC(=O)COc1cc(O)c2c(=O)cc(-c3ccccc3)oc2c1 | i
O=C(Nc1cccc(S(=O)(=O)N2CCOCC2)c1)Nc1cccc(Cl)c1Cl | i
C[C@H](CO)N1C[C@H](C)[C@H](CN(C)C(=O)c2ccncc2)Oc2cc(C#CC3(O)CCCC3)ccc2S1(=O)=O | i
O=C(Nc1cccc(O)c1)c1cc(S(=O)(=O)N2CCOCC2)ccc1Cl | i
C[C@@H]1CN([C@@H](C)CO)C(=O)c2cc(C#C[C@@H](C)O)cnc2O[C@H]1CN(C)Cc1cccc(F)c1 | i
Cc1ccc(S(=O)(=O)N[C@@H]2CC[C@@H](CC(=O)NCCc3ccncc3)O[C@@H]2CO)cc1 | i
CO[C@H](CN(C)C(=O)c1ccccc1F)[C@@H](C)CN([C@@H](C)CO)S(=O)(=O)c1ccc(Cl)cc1 | i
Cc1cccc(NC(=O)CC2NCCNC2=O)c1 (stereo not drawn) | i
COCC#Cc1cnc2c(c1)C(=O)N([C@@H](C)CO)C[C@H](C)[C@H](CN(C)Cc1ccccc1)O2 | i
O=C1NC(=O)C(C(CC(=O)c2ccccc2)c2ccccc2Br)C(=O)N1 (stereo not drawn) | i
CN(CC(=O)Nc1ccc(C#N)cc1)S(=O)(=O)c1ccc(Cl)cc1 | i
C[C@H]1CN([C@@H](C)CO)C(=O)c2cc(C#CC3CCCC3)cnc2O[C@@H]1CN(C)C(=O)C1CC1 | i
N#Cc1ccccc1CSc1nc2ccc(NC(=O)c3ccc(F)cc3)cc2s1 | i
O=C(C[C@@H]1C=C[C@@H](NC(=O)CC2CC2)[C@@H](CO)O1)NCc1ccc(-c2ccccc2)cc1 | i
COc1ccc(-c2cc(C(F)(F)F)nc(SCC(=O)N3CC4(C)CC3CC(C)(C)C4)n2)cc1 (stereo not drawn) | i
O=C(CC1(O)C(=O)N(Cc2cccc3ccccc23)c2ccccc21)c1ccc(Br)s1 (stereo not drawn) | i
COc1ccc(C)cc1NC(=O)CN(c1ccc(Cl)cc1)S(C)(=O)=O | i
CC(C)C#Cc1cnc2c(c1)C(=O)N([C@H](C)CO)C[C@H](C)[C@H](CN(C)C(=O)CC1CC1)O2 | i
